Screens from PubChem BioAssay.
VDR inhibitor: vitamin D3 receptor (human) inhibition; P11473; VDR-SRC2-3 peptide fluorescence polarization, 2 h; Potency, µM, for inactives: max response, negative = inhibition, actives largely listed as inhibitors; 0.93% of 400,000 active; AID 504847; active = well fitted inhibition curve with a large enough effect; inconclusive = small, poorly fitted or top-dose-only effect, or another doubt; inactive = no such curve, though single readings can be large or run the other way; also: series mostly up to about 120 µM
Target sequence (P11473 whole entry, looked up): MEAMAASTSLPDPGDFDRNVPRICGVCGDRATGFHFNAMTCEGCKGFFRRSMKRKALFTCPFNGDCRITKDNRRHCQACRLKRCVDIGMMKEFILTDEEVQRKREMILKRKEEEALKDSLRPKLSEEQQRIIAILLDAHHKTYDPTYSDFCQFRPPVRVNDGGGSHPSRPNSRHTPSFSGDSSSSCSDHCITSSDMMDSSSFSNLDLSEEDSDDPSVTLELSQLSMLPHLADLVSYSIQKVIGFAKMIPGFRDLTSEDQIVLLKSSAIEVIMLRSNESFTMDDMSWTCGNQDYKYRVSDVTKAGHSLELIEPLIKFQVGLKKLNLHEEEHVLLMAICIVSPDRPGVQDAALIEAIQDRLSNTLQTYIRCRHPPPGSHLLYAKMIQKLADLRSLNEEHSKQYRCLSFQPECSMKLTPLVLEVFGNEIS
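Measured by FP: displacement of SRC2-3 coactivator peptide from VDR by library compounds, following a two-hour ambient incubation.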
Numbers without * were called inactive; ? = inconclusive; & = joins results of further samples. % is scaled to controls: 0 for no effect and ±100 for the full control effect; potency is read from the fitted curve at half-maximal effect. These rows are one share of the data, so the mix of outcomes need not match the whole.

SMILES	VDR inhibitor
Cc1ccc(N2CC(C(=O)N3CCC(c4nc5ccccc5[nH]4)CC3)CC2=O)cc1C (configuration not stated)	1%
Nc1c(C(=O)O)cnc2c(-c3ccc(Cl)cc3)cnn12	-1%
COc1ccc(NC(=O)[C@@H]2[C@@H]3C(=O)N(C4CCCCC4)C(=O)[C@@H]3C3c4ccccc4C=CN32)cc1 (some centres not stated)	-1%
COC(=O)C1=C(CSc2nc3c(cc2C#N)CN(C)CC3)OC(N)=C(C#N)C1c1ccc(F)cc1 (configuration not stated)	6%
CC(=O)N1c2ccc(S(=O)(=O)N3CCN(c4cccc(Cl)c4)CC3)cc2CC1C (configuration not stated)	-11%
COc1ccc2[nH]c(=O)c(CN(CCc3cccc(C)c3)C(C)=O)cc2c1	5%
COCCN1C(=O)c2oc3cc(C)cc(C)c3c(=O)c2C1c1cccc(O)c1 (configuration not stated)	3%
CCCCOc1cccc(C(=O)Nc2cc3nn(-c4ccc(F)cc4)nc3cc2C)c1	-17%
O=[N+]([O-])c1ccc(N2CCOCC2)cc1	-17%
Cc1cc2n(n1)C(c1c[nH]c3ccccc13)Nc1ccccc1-2 (configuration not stated)	-12%
COCC(=O)N[C@@H]1c2ccccc2CC[C@@H]1OCc1ccccc1	-16%
COc1ccc2nc(/C=N/NC(=O)CCNC(=O)OC(C)(C)C)ccc2c1	9%
O=C(CN1C(=O)c2ccccc2C1=O)N1CCOCC1	-3%
COc1ccc(CN2CCN(CCCCOc3ccc(Cl)cc3)CC2)c(OC)c1OC	17%
CC(C)(C)OC(=O)N(CCc1ccccc1)Cc1cccc(OCc2cccc(NC(=O)C3CCC3)c2)c1	14%
CCc1c(C)c2ccc(O)c(CN3CCCC3)c2oc1=O	16%
CC(N)=NCCC[C@H](N)C(=O)O	11%
Cc1nn(C)c(Cl)c1CN1CCC(n2nccc2NC(=O)C2CCCC2)CC1	-3%
O=C(CN(C(=O)CNC(=O)c1ccco1)c1ccccc1F)NC1CCCCC1	7%
O=C(NCc1ccco1)C1CCN(S(=O)(=O)c2cccc3cccnc23)CC1	3%
Cn1cc(/C=C/C(=O)N2CCCC(C(=O)c3cccc(C(F)(F)F)c3)C2)cn1 (configuration not stated)	-1%
CCCn1cc(S(=O)(=O)c2ccc(OC)cc2)c(=O)c2cc(F)c(N3CCCCCC3)cc21	18%
Cc1c2cnn(-c3ccccc3)c(=O)c2c(C)n1C(C)C(=O)Nc1ccccc1C(F)(F)F (configuration not stated)	8%
Cc1ccc(NC(=O)c2ccc(S(=O)(=O)NCC3CCCO3)cc2)cc1C (configuration not stated)	-11%
COC(=O)N/N=C/c1ccccc1OCCOc1ccc(OC)cc1	-18%
SMILES	VDR inhibitor
CCn1c(N2CCN(CC(=O)c3c(C)n(C)c4ccc(OC)cc34)CC2)nc2c1c(=O)[nH]c(=O)n2C	-9%
CC(=O)N(/N=C1/C(=O)Nc2ccccc21)c1ccccc1	4%
C=CCn1c(=O)c2ccc(C(=O)NCc3ccccc3)cc2n(Cc2ccc(C)cc2)c1=O	8%
CCC1CCCCN1c1nc(-c2ccncc2)nc2ccccc12 (configuration not stated)	-27%
Cn1c(=O)n(C)c2cc(S(=O)(=O)NCCO)ccc21	-9%
Cc1c(C(=O)NNS(=O)(=O)c2ccccc2Cl)sc(=S)n1C	1%
Cc1cc2c(Nc3ccccc3)ncnc2s1	19%
CCn1ncc(Br)c1C(=O)Nc1ccc(C(C)C)cc1	-5%
Cc1ccccc1-n1cnc2c(sc3nc(N4CCOCC4)c4c(c32)CCCC4)c1=O	-12%
Cc1cc2c(cc1C)N(C(=O)CSC1=NCCS1)C(C)(C)c1ssc(=S)c1-2	-3%
COc1cccc2cc(C(=O)N3C(C)CCCC3C)c(=O)oc12 (configuration not stated)	-3%
Cc1cc(C2=NNC(=Nc3ccccc3)SC2)c(C)n1C	-8%
CC(=O)N(c1ccc(Cl)cc1)c1cn(C(C)=O)c2ccccc12	19%
COc1ccc(NC(=O)CSCc2ccc(C#N)cc2)c(OC)c1	-13%
CCOC(=O)C(CC(=O)O)NCc1ccco1 (configuration not stated)	-21%
CCCCn1nc(NC(=O)c2cccs2)c2cc3ccccc3nc21	7%
Cn1nc(C(=O)NC2CCCCC2)c2c1-c1ccccc1S(=O)(=O)C2	-9%
CCCn1c(=S)[nH]c2cc(C(=O)N3CCCC(C(=O)OCC)C3)ccc2c1=O (configuration not stated)	20%
O=C(NC(=S)N1CCN(c2ccccc2)CC1)c1ccc(S(=O)(=O)N2CCOCC2)cc1	-9%
C=C(C)c1cccc(C(C)(C)NC(=O)N2CCCCC2CC)c1 (configuration not stated)	-5%
O=C(NC(C(=O)N/N=C/c1ccccc1)c1n[nH]c(=O)c2ccccc12)c1ccccc1 (configuration not stated)	10%
CCCn1cnc2scc(-c3ccc(C)cc3)c2c1=O	-7%
O=C(CCSc1ccccc1)N1CCN(c2ccccc2)CC1	2%
CCCOc1ccc(NC(=O)CC2C(=O)N(c3cccc(OC)c3)C(=O)N2CCc2ccncc2)cc1 (configuration not stated)	8%
COc1cccc(-c2nnn(CC(=O)Nc3ccc(C)cc3C)n2)c1OC	5%
SMILES	VDR inhibitor
CC(C)(C)c1ccc(S(=O)(=O)N2CC(=O)Nc3ccccc32)cc1	-6%
O=C(O)c1cccc(NC(=S)NC(=O)c2cccc(OCc3ccccc3)c2)c1	-3%
COC(=O)c1sc(-c2ccc(Cl)cc2)cc1N	7%
COc1ccccc1CNCC(=O)NCc1ccc(C)cc1	-7%
CC(=O)Nc1ccc(S(=O)(=O)NCC2CCC(C(=O)NCCc3ccccc3)CC2)cc1 (configuration not stated)	-14%&10%
CCOc1ccc2[nH]c(=O)c(CN(CCCO)C(C)=O)cc2c1	11%
Nc1nc(C(=O)N2CCOCC2)nn1C(=O)c1ccc(Cl)cc1	-16%
CCc1ccc(C(=O)OCC(=O)c2c(N)n(CC(C)C)c(=O)n(C)c2=O)cc1	7%
CC(C)[C@H](NS(=O)(=O)c1cccc(C(F)(F)F)c1)C(=O)OCC(N)=O	-5%
O=C(Nc1ccc(F)cc1)C(Sc1nnc2ccccn12)c1ccccc1 (configuration not stated)	7%
N#CC(c1ccccc1)(c1ncc(C(F)(F)F)cc1Cl)N1CCOCC1 (configuration not stated)	-9%
Cc1c(Cl)c(C(=O)NNC(=S)Nc2ccccc2)nn1C	-7%
CN(CCC#N)c1ccc(/C=C(\C#N)c2ccccn2)cc1	-9%
Cc1cccc(OCc2nc(CC(=O)Nc3ccc(C)c(C)c3)cs2)c1	6%
Cc1nc2ncnn2c(C)c1CCC(=O)NCCCN1CCN(c2cccc(Cl)c2)CC1	-12%
Oc1ccc[n+](CC(O)c2ccccc2)c1 (configuration not stated)	-5%
O=C(C1=C(O)C(=O)N(CCCn2ccnc2)C1c1ccccc1)c1ccco1 (configuration not stated)	-16%
CNC[C@H](Cc1ccccc1)NC[C@@H](Cc1cccc2ccccc12)NCCc1ccc(C)cc1	14%
Cn1c(SCC(=O)Nc2cccc(NC(=O)c3cccs3)c2)nnc1-c1ccncc1	-8%
CCOc1ccc(C(CC(=O)O)NC(=O)c2cccs2)cc1 (configuration not stated)	-6%
CCCCC1=NC2(CCCC2)C(=O)N1Cc1ccc(-c2ccccc2-c2nn[nH]n2)cc1	1%
O=S(=O)(NC1=NCCC1)c1cccc(NS(=O)(=O)c2ccc(F)c(Cl)c2)c1	1%
CC1CCC(=NNS(=O)(=O)c2ccc([N+](=O)[O-])cc2)CC1 (configuration not stated)	-9%
COC(=O)c1sc(N2C(=O)c3oc4ccccc4c(=O)c3C2c2cccs2)nc1C (configuration not stated)	3%
COc1ccc(CN(C(=O)c2cc(=O)c3ccccc3o2)C2CCS(=O)(=O)C2)cc1OC (configuration not stated)	8%&1%
SMILES	VDR inhibitor
CC(=O)Nc1ccc(NC(=O)CSc2nc3ccccc3nc2N2CCOCC2)cc1	?
C#CCOCCOCCOCCNc1nc(N2CCN(C(=O)[C@H](CCCCN)n3cc(C(N)CC(C)C)nn3)CC2)nc(N2CCN(C(=O)[C@H](CCC(=O)O)n3cc(C(N)[C@H](C)CC)nn3)CC2)n1 (some centres not stated)	-17%
O=C1CC(N2CCN(c3cccc(C(F)(F)F)c3)CC2)C(=O)N1c1ccc(F)cc1 (configuration not stated)	-20%
O=C(NC1CCOCC1)C1CCC(=O)N(CCc2ccc(Cl)cc2)C1 (configuration not stated)	17%
CC(C)(C)OC(=O)CNC(=O)c1[nH]cnc1C(=O)NCCCCCNC(=O)OC(C)(C)C	-5%
COc1ccc(/C(N)=N/OC(=O)c2cccc([N+](=O)[O-])c2)cc1OC	-6%
COCCNC(=O)CSc1ncnc2sc(-c3ccccc3)cc12	-11%
Cc1cccc(C)c1NC(=O)N1CCC(C(N)=O)(N2CCCCC2)CC1	-3%
CC1CCN(CC(=O)Nc2ccc(S(=O)(=O)N3CCCCC3)cc2)CC1	-13%
CC(C)Oc1ccc(CNC(=S)N/N=C/c2ccc([N+](=O)[O-])cc2)cc1	0%
CN(C)c1c(F)cc(C(=O)NC(=O)NCc2cccnc2)cc1F	0%
CN(C)c1nc(N)c2nccnc2n1	-10%
CCC(=O)Nc1cccc(C2=NOC3(C2)C[C@@H](C(N)=O)N(C(=O)CC)C3)c1 (some centres not stated)	-10%
Cc1ccccc1CN1C(=O)C(O)(CC(=O)c2ccccc2)c2cc(Cl)ccc21 (configuration not stated)	8%
Cc1noc(C)c1COc1ccc(C(=O)N2CCC(C(N)=O)CC2)cc1	-4%
O=C(c1cc2cc(Cl)ccc2[nH]1)N1CCN(c2ccccn2)CC1	-21%
CCOC(=O)CSc1nn(-c2ccccc2)c(=S)s1	-5%
COc1cc(NC(=O)C2=C(N3CCOCC3)/C(=C\c3ccc(Br)cc3)CC2)cc(OC)c1OC	?
COc1ccccc1CNc1ncnc2c1cnn2-c1ccccc1	-19%
Cc1cc(C)nc(SCC(=O)c2ccc(O)c(O)c2)n1	8%
O=C(NCc1cccnc1)c1ccccc1NS(=O)(=O)c1ccc(Br)cc1	-18%
O=P(OCC1CCCO1)(OCC1CCCO1)OCC1CCCO1 (configuration not stated)	-26%
COc1cc(NC(=O)c2ccc(F)cc2)c(OC)cc1Cl	28%
O=C1NCCCC1C(=O)Nc1ccccc1C(F)(F)F (configuration not stated)	-12%
CCOC(=O)N1CCC(=NNC(=O)COc2cccc(C)c2)CC1	-6%

Laid out differently: 7 of the compounds above
| SMILES | VDR inhibitor |
| --- | --- |
| CN(C)c1nc(N)c2nccnc2n1 | -10% |
| CCC(=O)Nc1cccc(C2=NOC3(C2)C[C@@H](C(N)=O)N(C(=O)CC)C3)c1 (some centres not stated) | -10% |
| Cc1ccccc1CN1C(=O)C(O)(CC(=O)c2ccccc2)c2cc(Cl)ccc21 (configuration not stated) | 8% |
| Cc1noc(C)c1COc1ccc(C(=O)N2CCC(C(N)=O)CC2)cc1 | -4% |
| O=C(c1cc2cc(Cl)ccc2[nH]1)N1CCN(c2ccccn2)CC1 | -21% |
| CCOC(=O)CSc1nn(-c2ccccc2)c(=S)s1 | -5% |
| COc1cc(NC(=O)C2=C(N3CCOCC3)/C(=C\c3ccc(Br)cc3)CC2)cc(OC)c1OC | ? |

Sorted by molecular weight (smallest number first): some entries from above.
SMILES	VDR inhibitor
Cc1cc(C)nc(SCC(=O)c2ccc(O)c(O)c2)n1	8%
COc1cc(NC(=O)c2ccc(F)cc2)c(OC)cc1Cl	28%
COCCNC(=O)CSc1ncnc2sc(-c3ccccc3)cc12	-11%
CCC(=O)Nc1cccc(C2=NOC3(C2)C[C@@H](C(N)=O)N(C(=O)CC)C3)c1 (some centres not stated)	-10%

(next part)
SMILES	VDR inhibitor
Cc1cc(C(=O)NC2CCCCC2C)c2ccccc2n1 (configuration not stated)	6%
Cc1ccc(-c2cn(C[C@H]3CC[C@@H]([C@@H]4CC[C@H](Cn5cc(-c6ccc(C)cc6)nn5)O4)O3)nn2)cc1	-19%
CCOC(=O)c1c(C)[nH]c(C)c1S(=O)(=O)NC(C)Cc1ccco1 (configuration not stated)	10%
COc1ccc(NS(=O)(=O)c2c(C)[nH]c(C)c2C(=O)N2CCCCC2)cc1Cl	5%
O=S(=O)(NCc1ccccc1)c1ccc(Cl)cc1	-6%
COc1cccc(C2C(C#N)=C(N)OC3=C2C(=O)CCC3)c1OC(=O)c1ccco1 (configuration not stated)	4%
C=CCOc1cccc(/C=C2\C(=O)N(Cc3ccc(C)cc3)C(C)=C2C(=O)OC)c1	?
COc1ccccc1Cn1c(CNS(=O)(=O)c2ccc(CC(C)C)cc2)nc2cccnc21	2%
COc1ccc(NC(=O)N2CCCC2C(=O)Nc2cccc(C)c2C)cc1 (configuration not stated)	11%
Cc1[nH]c(C(=O)N/N=C/c2ccc(C(=O)O)cc2)c(C)c1C(=O)N/N=C/c1ccc(C(=O)O)cc1	-5%
Cc1cccc(C)c1NC(=O)COC(=O)c1cc(S(=O)(=O)Nc2ccc(Cl)cc2)ccc1O	-18%
COc1ccc(NS(=O)(=O)c2cc(NC(=O)c3cc(=O)c4ccccc4o3)ccc2OC)cc1	-3%
O=C(CCSc1nc2ccccc2o1)Nc1ccccc1	-15%
COc1ccccc1C(=O)N1CCN(Cc2cc(=O)oc3cc(C)ccc23)CC1	5%
CC1=C(C(=O)Nc2ccc(Cl)cc2C(=O)N2CCC(C(N)=O)CC2)SCCO1	-2%
O=C1Nc2ccccc2CCC1Sc1nnc(-c2ccc(Cl)cc2)s1 (configuration not stated)	7%
